A1 apoptosis 2 – compounds inhibiting A1, read as caspase activation | 24,000 tested, under 10 active | AID 2465 | MEF A1-2A-BIM cells, caspase-Glo luminescence, 3 h; percent of clofoctol response, DMSO zero | caspase activation, % (test concentration not listed); in the data active = caspase activation above about 5.9%;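 note: wells of about 30 µL received 50 nL stock; the first replicate is given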
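system = A1-2A-BIM-expressing MEF cells | quantity = 2500 MEF cells/well | dosing = 50 nL compound per well, pinned | schedule = overnight cell settling, then 3 h compound exposure, 37 °C | signal = luminescence from DEVD-luciferin Caspase-Glo reagent, 1:1 in 50 mM HEPES, 1 h RT | read-out = Caspase-3/7 activation, seen as rise in luminescence signal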
* marks the source's active call; other numbers are inactive results. Only part of the results is shown (hit frequency here may not be typical).

SMILES	A1 apoptosis 2
Cc1ccc(S(=O)(=O)Nc2ccc3c(c2)C(=O)N([C@@H](C)CO)C[C@H](C)[C@@H](CN(C)Cc2ccc(C(=O)O)cc2)OCCCC[C@H](C)O3)cc1	1.1
C[C@H]1CN([C@@H](C)CO)C(=O)Cc2cc(NC(=O)Cc3ccccc3)ccc2O[C@H]1CN(C)C(=O)Nc1ccccc1	0.2
COc1ccc(COC[C@@]23Oc4ccccc4[C@@H](NC(=S)N2C)[C@H]3CO[Si](C)(C)C(C)(C)C)cc1	0.1
C[C@@H]1CN([C@@H](C)CO)C(=O)CCCn2cc(nn2)CO[C@@H]1CN(C)S(=O)(=O)c1cccs1	-0.5
C[C@@H]1CCCCO[C@H](CN(C)CC2CC2)[C@@H](C)CN([C@H](C)CO)C(=O)c2cc(NC(=O)Nc3cccc4ccccc34)ccc2O1	0.2
COc1ccc(S(=O)(=O)Nc2ccc3c(c2)C(=O)N([C@@H](C)CO)C[C@@H](C)[C@H](CN(C)C(=O)Nc2cccc4ccccc24)O3)cc1	1.4
C[C@H]1CN([C@@H](C)CO)C(=O)CCCn2nncc2CO[C@H]1CN(C)Cc1ccc(Oc2ccccc2)cc1	-1.0
COc1ccccc1CN1C(=O)c2ccccc2[C@@]2(Cc3ccccc3N(CCCN(C)C)C2=O)[C@@H]1c1ccc(CO)cc1	-0.7
NC(=O)[C@@H]1[C@H]2C(=O)O[C@H](c3ccccc3)[C@H](c3ccccc3)N2[C@H](c2ccccc2OCCO)[C@@]12C(=O)Nc1ccc(C#CC3=CCCCC3)cc12	1.8
C[C@H](CO)N1C[C@H](C)[C@H](CN(C)C(=O)NC2CCCCC2)OCCCC[C@H](C)Oc2ccc(NC(=O)Cc3ccccc3)cc2C1=O	0.1
C[C@@H]1CN([C@H](C)CO)C(=O)c2cc(NC(=O)c3ccncc3)ccc2O[C@@H]1CN(C)S(=O)(=O)c1cccs1	-0.4
C[C@@H]1CN([C@H](C)CO)C(=O)c2cccc(NC(=O)c3ccc(-c4nccs4)cc3)c2O[C@@H]1CN(C)C(=O)Nc1cccc2ccccc12	-1.7
C[C@@H]1CN([C@H](C)CO)C(=O)c2cc(NC(=O)CCN3CCOCC3)ccc2O[C@H]1CN(C)C(=O)Nc1ccccc1	0.2
COc1ccc(NC(=O)N(C)C[C@@H]2OCCCC[C@@H](C)Oc3ccc(NC(=O)Nc4cccc5ccccc45)cc3C(=O)N([C@@H](C)CO)C[C@@H]2C)cc1	-0.6
C[C@@H]1CCCCO[C@H](CN(C)C(=O)CCC(F)(F)F)[C@H](C)CN([C@@H](C)CO)C(=O)c2cc(NS(=O)(=O)c3cn(C)cn3)ccc2O1	0.9
COc1ccc(S(=O)(=O)N(C)C[C@@H]2Oc3ccc(NC(=O)Nc4ccc(F)cc4)cc3CC(=O)N([C@@H](C)CO)C[C@@H]2C)cc1	-0.2
C[C@H]1CN([C@@H](C)CO)C(=O)c2cccc(NS(C)(=O)=O)c2O[C@H]1CN(C)Cc1ccc(Cl)c(Cl)c1	-0.8
C[C@H](CO)N1C[C@H](C)[C@H](CN(C)S(=O)(=O)c2ccc(F)cc2)Oc2ncc(C#CCN(C)C)cc2C1=O	-0.7
Cc1ccc(S(=O)(=O)N(C)C[C@H]2Oc3c(NC(=O)C4CCOCC4)cccc3C(=O)N([C@H](C)CO)C[C@H]2C)cc1	-0.1
CCCN(C)C[C@H]1OCCCC[C@H](C)Oc2ccc(NC(=O)Nc3ccc(F)cc3)cc2C(=O)N([C@@H](C)CO)C[C@H]1C	-1.1
C[C@@H]1CN([C@@H](C)CO)C(=O)Cc2cc(NC(=O)Cn3cnnn3)ccc2O[C@@H]1CN(C)CC1CCCCC1	0.9
C[C@H](CO)N1C[C@H](C)[C@@H](CN(C)C(=O)Cc2ccccc2)OCCCC[C@H](C)Oc2ccc(N(C)C)cc2C1=O	-0.5
C[C@H](CO)N1C[C@H](C)[C@H](CN(C)S(=O)(=O)c2cccs2)Oc2ccc(NC(=O)NC3CCCCC3)cc2CC1=O	0.5
C[C@@H]1CCCCO[C@H](CN(C)C(=O)NC2CCCCC2)[C@H](C)CN([C@H](C)CO)C(=O)c2cc(NS(C)(=O)=O)ccc2O1	-0.5
C[C@H]1CN([C@@H](C)CO)C(=O)c2cccc(NS(=O)(=O)c3ccccc3)c2O[C@@H]1CN(C)C(=O)Nc1ccc(C(F)(F)F)cc1	1.0
C[C@H]1CN([C@@H](C)CO)C(=O)c2cc(NC(=O)CCCN(C)C)ccc2O[C@@H]1CN(C)Cc1ccc(Cl)c(Cl)c1	-0.6
CC(C)NC(=O)N(C)C[C@H]1Oc2c(NC(=O)CCCCCC(=O)Nc3ccccc3N)cccc2C(=O)N([C@@H](C)CO)C[C@@H]1C	0.1
COc1ccc(S(=O)(=O)N(C)C[C@@H]2Oc3ccc(NC(=O)CCC(F)(F)F)cc3C(=O)N([C@H](C)CO)C[C@@H]2C)cc1	-2.1
C[C@@H]1CN([C@H](C)CO)C(=O)c2cccc(NS(C)(=O)=O)c2O[C@H]1CN(C)CC1CC1	0.9
C[C@@H]1CN([C@H](C)CO)C(=O)c2cc(NC(=O)Nc3ccc(F)cc3)ccc2O[C@@H](C)CCCCO[C@H]1CN(C)Cc1ccc(C(=O)O)cc1	0.0
C[C@@H]1CCCCO[C@@H](CN(C)Cc2ccccc2)[C@@H](C)CN([C@@H](C)CO)C(=O)c2cc(NC(=O)Nc3ccc(F)cc3)ccc2O1	0.7
C[C@@H]1CN([C@@H](C)CO)C(=O)c2cccc(NC(=O)C3CCOCC3)c2O[C@@H]1CN(C)C(=O)Nc1ccc(F)cc1	-1.8
C[C@@H]1CN([C@@H](C)CO)C(=O)Cc2cc(NC(=O)Cn3cnnn3)ccc2O[C@@H]1CN(C)S(=O)(=O)c1ccccc1	1.2
C[C@@H]1CN([C@@H](C)CO)C(=O)c2cc(NS(=O)(=O)c3ccc(F)cc3)ccc2O[C@@H](C)CCCCO[C@H]1CN(C)C(=O)Nc1ccc(F)cc1	1.4
COc1ccc(S(=O)(=O)N(C)C[C@@H]2OCCCC[C@H](C)Oc3ccc(N(C)C)cc3C(=O)N([C@@H](C)CO)C[C@H]2C)cc1	0.3
CNC[C@@H]1Oc2ncc(C#Cc3cccc(F)c3)cc2C(=O)N([C@H](C)CO)C[C@@H]1C	0.3
C[C@H](CO)N1C[C@H](C)[C@@H](CN(C)S(=O)(=O)c2ccccc2)Oc2ccc(NC(=O)c3ccncc3)cc2CC1=O	0.5
C[C@@H]1CN([C@@H](C)CO)C(=O)c2cc(NC(=O)Cc3cn(C)c4ccccc34)ccc2O[C@@H]1CN(C)C(=O)NC1CCCCC1	1.6
COCCCNC(=O)[C@@]1(C)c2ccccc2C(=O)N(Cc2ccc(OC(F)(F)F)cc2)[C@H]1c1ccc(CO)cc1	0.4
C[C@H]1CN([C@@H](C)CO)C(=O)CCCn2cc(nn2)CO[C@@H]1CN(C)C	1.1
CC(C)NC(=O)N(C)C[C@@H]1OCCCC[C@@H](C)Oc2ccc(NC(=O)Cc3ccccc3)cc2C(=O)N([C@@H](C)CO)C[C@@H]1C	0.5
C[C@@H]1CN([C@H](C)CO)C(=O)Cc2cc(NC(=O)Cc3ccccc3)ccc2O[C@@H]1CN(C)S(=O)(=O)c1cccs1	-0.4
C[C@@H]1CCCCO[C@H](CN(C)S(=O)(=O)c2cccs2)[C@@H](C)CN([C@H](C)CO)C(=O)c2cc(NC(=O)Nc3cccc4ccccc34)ccc2O1	0.5
C[C@H]1CN([C@@H](C)CO)C(=O)c2cccc(NC(=O)NC3CCCCC3)c2O[C@H]1CN(C)CC1CCCCC1	-0.8
C[C@@H]1CCCCO[C@@H](CN(C)C(=O)Nc2ccccc2)[C@H](C)CN([C@@H](C)CO)C(=O)c2cc(NC(=O)Nc3ccc(F)cc3)ccc2O1	1.4

A run of entries from further up, for reference:
SMILES	A1 apoptosis 2
C[C@H](CO)N1C[C@H](C)[C@@H](CN(C)S(=O)(=O)c2ccccc2)Oc2ccc(NC(=O)c3ccncc3)cc2CC1=O	0.5
C[C@@H]1CN([C@@H](C)CO)C(=O)c2cc(NC(=O)Cc3cn(C)c4ccccc34)ccc2O[C@@H]1CN(C)C(=O)NC1CCCCC1	1.6
COCCCNC(=O)[C@@]1(C)c2ccccc2C(=O)N(Cc2ccc(OC(F)(F)F)cc2)[C@H]1c1ccc(CO)cc1	0.4
C[C@H]1CN([C@@H](C)CO)C(=O)CCCn2cc(nn2)CO[C@@H]1CN(C)C	1.1
CC(C)NC(=O)N(C)C[C@@H]1OCCCC[C@@H](C)Oc2ccc(NC(=O)Cc3ccccc3)cc2C(=O)N([C@@H](C)CO)C[C@@H]1C	0.5
C[C@@H]1CN([C@H](C)CO)C(=O)Cc2cc(NC(=O)Cc3ccccc3)ccc2O[C@@H]1CN(C)S(=O)(=O)c1cccs1	-0.4
C[C@@H]1CCCCO[C@H](CN(C)S(=O)(=O)c2cccs2)[C@@H](C)CN([C@H](C)CO)C(=O)c2cc(NC(=O)Nc3cccc4ccccc34)ccc2O1	0.5
C[C@H]1CN([C@@H](C)CO)C(=O)c2cccc(NC(=O)NC3CCCCC3)c2O[C@H]1CN(C)CC1CCCCC1	-0.8
C[C@@H]1CCCCO[C@@H](CN(C)C(=O)Nc2ccccc2)[C@H](C)CN([C@@H](C)CO)C(=O)c2cc(NC(=O)Nc3ccc(F)cc3)ccc2O1	1.4

Other records follow.
SMILES	A1 apoptosis 2
C[C@@H]1CCCCO[C@H](CN(C)C(=O)Nc2ccc(F)cc2)[C@H](C)CN([C@@H](C)CO)C(=O)c2cc(NS(=O)(=O)c3ccccc3)ccc2O1	0.4
C[C@@H]1CN([C@@H](C)CO)C(=O)Cc2cc(NS(=O)(=O)c3ccc(F)cc3)ccc2O[C@H]1CN(C)Cc1ccc(Oc2ccccc2)cc1	0.6
CCCN(C)C[C@H]1OCCCC[C@@H](C)Oc2ccc(NC(=O)Nc3ccc(C(F)(F)F)cc3)cc2C(=O)N([C@@H](C)CO)C[C@H]1C	0.1
C[C@@H]1CN([C@@H](C)CO)C(=O)Cc2cc(NC(=O)CCCCCC(=O)Nc3ccccc3N)ccc2O[C@@H]1CN(C)S(=O)(=O)c1cn(C)cn1	-1.2
C[C@H](CO)N1C[C@H](C)[C@H](CN(C)C(=O)Nc2ccccc2)Oc2ccc(NC(=O)CCN3CCOCC3)cc2C1=O	0.0
C[C@H](CO)N1C[C@H](C)[C@@H](CN(C)S(=O)(=O)c2cn(C)cn2)Oc2ccc(NC(=O)NC3CCCCC3)cc2CC1=O	1.5
C[C@@H]1CN([C@@H](C)CO)C(=O)c2cccc(NC(=O)c3ccc(-c4nccs4)cc3)c2O[C@@H]1CN(C)S(=O)(=O)c1cn(C)cn1	-0.4
C[C@@H]1CN([C@H](C)CO)C(=O)c2cc(NS(=O)(=O)c3cn(C)cn3)ccc2O[C@@H](C)CCCCO[C@@H]1CN(C)C(=O)C1CCCCC1	-0.9
C[C@@H]1CN([C@H](C)CO)C(=O)c2cc(NC(=O)C3CCCCC3)ccc2O[C@@H]1CN(C)Cc1ccc2c(c1)OCO2	0.4
C[C@H](CO)N1C[C@H](C)[C@@H](CN(C)C(=O)Nc2ccc(C(F)(F)F)cc2)Oc2c(NS(C)(=O)=O)cccc2C1=O	0.4
COc1ccc(NC(=O)N(C)C[C@H]2Oc3ccc(NS(=O)(=O)c4ccc(C)cc4)cc3CC(=O)N([C@@H](C)CO)C[C@H]2C)cc1	-0.7
Cc1noc(C)c1NC(=O)Nc1ccc2c(c1)C(=O)N([C@H](C)CO)C[C@@H](C)[C@@H](CN(C)C(=O)Nc1c(C)noc1C)OCCCC[C@@H](C)O2	1.5
C[C@H](CO)N1C[C@H](C)[C@H](CN(C)C(=O)NC2CCCCC2)Oc2ccc(NC(=O)c3ccncc3)cc2CC1=O	-0.1
C=CCOC(=O)[C@@H]1[C@H]2C(=O)O[C@H](c3ccccc3)[C@H](c3ccccc3)N2[C@H](c2ccc(OCCOC(=O)[C@H]3C[C@H]4C(=O)N5CCC[C@H]5C(=O)N4[C@H]3c3ccc(O)cc3)cc2)[C@@]12C(=O)Nc1ccccc12	0.5
C[C@@H]1CN([C@@H](C)CO)C(=O)Cc2cc(NC(=O)CCN3CCOCC3)ccc2O[C@@H]1CN(C)Cc1ccc(Oc2ccccc2)cc1	-0.3
Cc1cc(C(=O)Nc2cccc3c2O[C@H](CN(C)C(=O)Nc2c(C)noc2C)[C@H](C)CN([C@@H](C)CO)C3=O)n(C)n1	-1.6
C[C@@H]1CN([C@@H](C)CO)C(=O)c2cc(NC(=O)Cc3ccccc3)ccc2O[C@@H]1CN(C)CC1CCCCC1	0.6
C[C@@H]1CN([C@@H](C)CO)C(=O)c2cc(NC(=O)Nc3ccc4c(c3)OCO4)ccc2O[C@@H]1CN(C)Cc1ccc(C(F)(F)F)cc1	-1.7
C[C@@H]1CN([C@H](C)CO)C(=O)c2cc(NS(=O)(=O)c3ccccc3)ccc2O[C@@H]1CN(C)Cc1ccc(-c2ccccc2)cc1	-2.0
C[C@@H]1CCCCO[C@@H](CN(C)C(=O)c2ccccc2)[C@@H](C)CN([C@H](C)CO)C(=O)c2cc(NC(=O)Nc3ccc(F)cc3)ccc2O1	0.0
COc1ccc(NC(=O)N(C)C[C@H]2OCCCC[C@H](C)Oc3ccc(NC(=O)NC4CCCCC4)cc3C(=O)N([C@H](C)CO)C[C@H]2C)cc1	-0.3
C[C@H](CO)N1C[C@H](C)[C@H](CN(C)C(=O)Nc2ccccc2)Oc2ncc(C#Cc3cccc(F)c3)cc2C1=O	-0.5
C[C@@H]1CN([C@H](C)CO)C(=O)Cc2cc(NC(=O)Cc3cn(C)c4ccccc34)ccc2O[C@@H]1CN(C)C(=O)Nc1ccc(C(F)(F)F)cc1	1.0
O=C(NO)c1ccc(C(=O)N/N=C/c2cccc(Oc3ccccc3)c2)cc1	-0.8
C[C@@H]1CCCCO[C@H](CN(C)C(=O)Cc2ccccc2)[C@@H](C)CN([C@@H](C)CO)C(=O)c2cc(NS(C)(=O)=O)ccc2O1	-1.2

From PubChem
